# LASV entry inh = Lassa virus entry inhibition; Lassa virus pseudotype entry inhibition, cell reporter; control for the full effect not named in the record; Potency, µM (series often up to 37.9 µM), without a hit: top-dose activity change, negative = inhibition, most hits filed as inhibitors; 300,000 compounds, 1.2% hits; active means well fitted inhibition curve with a large enough effect; inconclusive means small, poorly fitted or top-dose-only effect, or effect the other way; inactive means flat fitted curve, though single readings scatter; tested in HEK293 cells; also: % is scaled to controls: 0 for no effect and ±100 for the full control effect; nearly all actives have a fitted effect of over 50% in size; luciferase read-out
# Cruzain inh noDet = blocks cruzain activity in detergent-free assay | P25779 | purified cruzain, Z-FR-AMC fluorescence, no detergent | Potency, µM, without a hit: max response, negative = inhibition, most hits filed as inhibitors | 200,000 compounds, 2.3% hits | AID 1476; active = well fitted curve in the direction sought with a large enough effect; inconclusive = small, poorly fitted or top-dose-only effect, or another doubt; inactive = no such curve, though single readings can be large; an effect the other way counts as inactive or inconclusive;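 also: plate controls were enzyme without inhibitor for no effect and buffer without enzyme for full effect; nearly all actives have a fitted effect of over 40% in size; top concentration of the series not given in the record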
# Target sequence (P25779 123-467 limits assumed): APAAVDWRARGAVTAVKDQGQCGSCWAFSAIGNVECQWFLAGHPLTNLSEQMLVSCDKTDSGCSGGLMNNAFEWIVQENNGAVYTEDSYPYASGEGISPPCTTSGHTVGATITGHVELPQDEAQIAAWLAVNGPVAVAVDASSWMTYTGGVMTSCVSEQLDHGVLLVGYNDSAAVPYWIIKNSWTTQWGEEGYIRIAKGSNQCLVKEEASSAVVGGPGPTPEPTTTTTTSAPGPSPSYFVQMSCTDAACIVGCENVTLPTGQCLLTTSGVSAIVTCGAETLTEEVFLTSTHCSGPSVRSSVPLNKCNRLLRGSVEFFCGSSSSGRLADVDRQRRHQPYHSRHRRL
#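 Purified cruzain at 1.5 nM, pre-incubated 15 min with compound at room temperature in 100 mM sodium acetate pH 5.5, 5 mM DTT, 0.00005% Triton X-100. Reaction started with 2 uM Z-FR-AMC; AMC fluorescence increase over 60 s gives rate.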
# SARS PLpro yeast = blocks SARS-CoV papain-like protease in a yeast assay. 330,000 compounds, 0.19% hits. S. cerevisiae expressing SARS-CoV PLpro, growth rescue; control for the full effect not named in the record. AID 485353. Potency, µM (top dose mostly 32.9 µM), inactives show top-dose activity, positive = growth rescue; also: 0% is about no effect; nearly all actives have a fitted effect of over 55% in size; growth read by luminescence after 48 h
# RE007 growth inh = less growth of the S. pombe RE007 Vpr strain; S. pombe RE007 Vpr strain, BacTiter-Glo ATP luminescence, 24 h; control for the full effect not named in the record; Potency, µM (top dose mostly 92.2 µM), without a hit: at the highest dose activity change, negative = less growth; 360,000 compounds, 0.21% hits; active = well fitted falling curve with a large enough effect; inconclusive = small, poorly fitted or top-dose-only effect; inactive = no such curve, though single readings can be large or run the other way;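 also: % is scaled to controls: 0 for no effect and ±100 for the full control effect; nearly all actives have a fitted effect of over 50% in size; the assay follows cell death caused by Vpr and the record does not say whether a fall means rescue or toxicity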
#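 Fission yeast strain RE007, carrying one chromosomally integrated HIV-1 vpr copy, was seeded at OD 0.01 in PMG+AL medium with 23 nL pinned compound. After 24 h at 30 °C and 99% humidity, viability was read by BacTiter-Glo luminescence.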
# NS1 function inh = blocks influenza NS1 protein function; S. cerevisiae slowed by influenza A NS1, growth recovery by OD600; Potency, µM (highest dose often 46.1 µM), for the others: at the highest dose activity, positive = more growth; 270,000 compounds, 0.4% hits; also: actives are rising curves; nearly all actives have a fitted effect of over 50% in size
#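 Growth recovery, yeast-based: influenza A NS1 expressed in S. cerevisiae causes slow growth, and suppressors are detected by OD600. The parent strain without NS1 is used as positive control.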
# Cruzain inh Det = cruzain (T. cruzi) inhibition with detergent; P25779; purified cruzain, Z-FR-AMC fluorescence, 0.01% Triton; Potency, µM, for inactives: max response, negative = inhibition, most hits filed as inhibitors; 200,000 compounds, 0.43% hits; AID 1478; active = well fitted curve in the direction sought with a large enough effect; inconclusive = small, poorly fitted or top-dose-only effect, or another doubt; inactive = no such curve, though single readings can be large; an effect the other way counts as inactive or inconclusive;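 also: plate controls were neutral wells for no effect and buffer without enzyme for full effect; nearly all actives have a fitted effect of over 40% in size; top concentration of the series not given in the record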
#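 Enzyme 1.5 nM, Z-FR-AMC 2 uM, NaOAc 100 mM pH 5.5, DTT 5 mM, Triton X-100 0.01%; 15 min RT compound preincubation; kinetic ex360/em450, 60 s delta.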
# MARV entry inh = Marburg virus entry inhibition; Marburg virus pseudotyped entry inhibition, cell reporter; control for the full effect not named in the record; about a third of the inactives were read at about 46 µM; Potency, µM (top dose mostly 37.8 µM), without a hit: top-dose activity change, negative = inhibition, hits mostly inhibitors; 300,000 compounds, 1.8% hits; AID 540276; active = well fitted inhibition curve with a large enough effect; inconclusive = small, poorly fitted or top-dose-only effect, or effect the other way; inactive = flat fitted curve, though single readings scatter; tested in HEK293 cells; about a fifth of its hits are not listed in these tables; also: % is scaled to controls: 0 for no effect and ±100 for the full control effect; luciferase read-out
# StopGo reporter = FMDV 2A StopGo reporter, luciferase signal. human cells with a luciferase reporter of 2A StopGo recoding; control for the full effect not named in the record. Potency, µM (series often up to 57.9 µM), for inactives: at the top dose signal change, negative = less light. 410,000 compounds, 1.2% hits. AID 1159524; active = well fitted falling curve with a large enough effect; inconclusive = small, poorly fitted or top-dose-only effect; inactive = no such curve, though single readings can be large or run the other way; tested in HEK293T cells; also: % is scaled to controls: 0 for no effect and ±100 for the full control effect; nearly all actives have a fitted effect of over 45% in size; luciferase light after 4 h
# * marks the source's active call; other numbers are inactive results; u = inconclusive; x = not tested or not shown; & = joins results of further samples; [ ] = dose if it differs, or a comment. Unless noted, calls follow the shape of the dose curve; as a rule, active means well fitted rising curve with a large enough effect; inconclusive means small, poorly fitted or top-dose-only effect; inactive means no such curve, though single readings can be large or run the other way. Potency is read from the fitted curve at half-maximal effect.
SMILES,LASV entry inh,Cruzain inh noDet,SARS PLpro yeast,RE007 growth inh,NS1 function inh,Cruzain inh Det,MARV entry inh,StopGo reporter
O=C1C=C(O)C(n2cncn2)C(c2ccc(F)cc2)C1 (stereo not drawn),1%[46.1 µM],x,-1%,5%,x,x,6%[46.1 µM],-1%
COc1ccc(N2C(=O)/C(=C\c3ccco3)N=C2SCC(=O)NC(C)(C)C)cc1Cl,-4%,-2%,-5%,4%,22%,-8.0%,-28%,-15%
O=S(=O)(c1ccc(-c2csc(=Nc3ccc(OC(F)(F)Cl)cc3)n2CCCO)cc1)N1CCCC1,u,u,x,x,x,-8.6%,u,u
O=C(/C=C/c1ccc(S(=O)(=O)N2CCOCC2)cc1)NC(=S)NCCCn1ccnc1,u,x,1%,1%,x,x,u,-10%
CCc1ccccc1NC(=O)N[C@H](C(=O)O)C(C)CC (stereo partly drawn),-2%,2%,-2%,-13%,6%,4.8%,21%,-16%
CCOC(=O)N1CCC(Nc2c(Nc3ccc(C)c(C)c3)c(=O)c2=O)CC1,5%,-8%,-1%,-5%,-5%,-9.2%,3%,34%[activator]
COc1ccc(C2=NC(C)(C)N(CC(=O)Nc3cccc(C)c3)C2=O)cc1,-17%[46.1 µM],1%,x,x,x,-4.2%,u,6%
COc1cc(/C=C2/C(=O)N=C(N)N2C)cc(OC)c1OC,1%,-5%,19%,17%,12%,5.1%,17%,-5%
O=c1ccccn1Cc1c(F)cccc1Cl,-1%,-1%,4%,-18%,12%,0.6%,3%,-15%
O=C(NC(=S)NCCc1ccccc1)C1CCCCC1,u,-17%,8%,x,7%,-7.0%,u,20%
Cc1ccnc(N2C(=O)CSC2c2ccc(Cl)cc2)c1 (stereo not drawn),u,16%,-18%,-5%,24%,-3.3%,6%,-22%
Cc1ccc(C(=O)NCc2ccccc2)cc1NC(=O)c1nsc2ccccc12,-16%[46.1 µM],u,x,x,x,-1.6%,x,32%[activator]
Cc1ccc(F)c(NC=C2C(=O)OC(C)(C)OC2=O)c1,23%,7%,2%,3%,2%,-0.2%,5%,7%
CCOc1cc(C(C(=O)NCC2CCCO2)N(C(=O)Cn2nnc3ccccc32)c2ccccc2OC)ccc1O (stereo not drawn),16%,x,1%,3%,-16%,x,2%[46.1 µM],96%[activator]
COC(=O)CCNS(=O)(=O)c1ccc2ccccc2c1,19%,23%,-7%,0%,-9%,0.5%,-13%,38%[activator]
COc1ccc2[nH]cc(CCNC(=O)C3CC(=O)N(c4ccc(Cl)cc4)C3)c2c1 (stereo not drawn),12%[46.1 µM],x,0%,0%,23%,x,u,-23%
CCC(C)NC(=O)C1CCC(=O)N1CCc1ccccc1 (stereo not drawn),-10%,x,-3%,-6%,1%,x,28%,7%
COc1ccc(CN(C(=O)c2cc3ccccc3oc2=O)C2CCS(=O)(=O)C2)cc1OC (stereo not drawn),-30%&17%[46.1 µM],-16%,-2%,-14%,-4%,-3.6%,u,13%&78%
O=[N+]([O-])c1ccccc1N/N=C/c1cc2ccccc2nc1Cl,45%[14.3 µM],-13%,-3%,0%,14%,0.4%,u,56%[activator]
COc1cccc(N2CCN(Cc3nc4ccccc4c(=O)[nH]3)CC2)c1,13%,1%,0%,-1%,0%,4.4%,-17%[46.1 µM],0%
Cc1cc2ccccc2n1CCNC(=O)c1cccc(Br)c1,-27%[46.1 µM],-15%,x,x,x,-11%,u,0%
CCc1nnc2c(N3CCN(c4cccc(C)c4)C(C)C3)nc3ccccc3n12 (stereo not drawn),-20%[46.1 µM],u,x,x,x,-3.1%,x,-21%
CC(=O)c1ccc2noc(-c3ccccc3)c2c1,-2%[46.1 µM],x,-2%,-9%,-6%,x,-3%[46.1 µM],-3%
Cc1ccc2occ(/C=N/NC(=O)c3ccccc3O)c(=O)c2c1,x,x,-1%,-10%,-31%,x,x,10%
CCOC(=O)c1sc(=NC(=O)C2CC2)n(C)c1C,-11%,x,-1%,14%,x,x,-1%[46.1 µM],25%
O=C(CN(C(=O)c1csnn1)c1cccc(F)c1)NCc1ccc2c(c1)OCO2,0%,x,7%,8%,7%,x,9%[46.1 µM],-11%
COCCn1c(=S)[nH]c2cc(C(=O)NCCCN3CCOCC3)ccc2c1=O,-7%,-8%,5%,4%,-4%,0.4%,u,-24%
O=C1CCN(Cc2ccc([N+](=O)[O-])cc2)CCN1CCO,x,x,0%,8%,8%,x,x,-12%
C=CCN=C(CC)C1=C(O)CCCC1=O,6%,-12%,5%,9%,-2%,5.3%,2%,6%
Fc1cccc(CSc2ccc3nnc(-c4cccnc4)n3n2)c1,-18%,x,1%,4%,x,x,u,-19%
Cc1ccc(C(=O)c2ccccc2C(=O)OCC(=O)NC(=O)NC(C)(C)C)cc1,5%[46.1 µM],x,3%,1%,x,x,-5%[46.1 µM],-4%
CCCCNC(=O)CSc1nc2cc3c(cc2c(=O)n1CCCCCC(=O)NCCc1ccc(OC)c(OC)c1)OCO3,28%[46.1 µM],5%,x,x,x,2.3%,x,-4%
COc1ccc(OC)c([C@@H](O)[C@H](C)NC(C)(C)C)c1,-9%,-7%,1%,-12%[18.4 µM],-6%,2.1%,0%,-16%
CCOC(=O)C1=C(C)N(C)C(C)=C(C(=O)OCC)C1c1ccsc1,17%,x,-3%,-12%,x,x,u,-21%
Cc1cc(OCCn2cnc3ccccc3c2=O)ccc1[N+](=O)[O-],u,-7%,u,-2%,29%,-3.2%,2%,-13%
CC(C)[C@H](NC(=O)c1cc2cc(Cl)ccc2n1C)C(=O)N[C@@H](C(=O)O)c1ccccc1,21%[46.1 µM],x,1%,9%,5%,x,26%[46.1 µM],-13%
COC(=O)c1ccc(NC(=O)Cn2nc(-c3ccncc3)nc2SCC(=O)Nc2nccs2)cc1,2%,0%,0%,-8%,24%,-6.2%,-6%,-14%
Fc1ccc(CNc2nc(-c3ccco3)cc(C(F)(F)F)n2)cc1,-21%,6%,-17%,5%,-98%,-20%,9.2µM*,-28%
CCOC(=O)C1CCN(c2ccc([N+](=O)[O-])cc2)CC1,-7%[46.1 µM],x,-1%,-5%,-7%,x,1%[46.1 µM],-16%
CCOC(=O)c1ccc(N2C(=O)C(O)=C(C(C)=O)C2c2ccccc2)cc1 (stereo not drawn),2%,-4%,12%,-2%,7%,-8.1%,u,-26%
COCCn1cnc2cc(C)c(C)cc21,2%,-6%,2%,16%,-1%,-2.3%,2%,-8%
Cc1ccc(-c2nnc(NCc3nc4ccccc4[nH]3)c3ccccc23)cc1S(=O)(=O)N1CCOCC1,u,u,21%,-13%,u,-15%,u,u
Cc1ccccc1CSc1cn(CC(=O)N2CCCC2)c2ccccc12,-25%[46.1 µM],u,x,x,x,-9.1%,x,18%
O=C(N[C@@H](Cc1ccccc1)C(=O)O)c1c(F)c(F)c(F)c(F)c1F,x,x,1%,-7%,6%,x,x,0%
COC(=O)c1cc(OC)c(OC)cc1NC(=S)N1CCOCC1,x,x,0%,-3%,-1%,x,x,-22%
CCc1cccc(NC(=O)CN(c2ccc(C)c(C)c2)S(=O)(=O)c2ccsc2C(=O)OC)c1,u,-10%,x,x,x,-5.1%,x,u
Cc1cn2c(=O)cc(COC(=O)COc3ccccc3C)nc2s1,-3%[46.1 µM],0%,x,x,x,0.4%,x,-18%
Cc1cc(=O)[nH]c(SCC(=O)Nc2cc(S(=O)(=O)N(C)C)ccc2Cl)n1,-10%,x,2%,-2%,x,x,0%,12%
N#Cc1cccc(C(=O)Nc2cccc(S(=O)(=O)N3CCCC3)c2)c1,-17%[46.1 µM],x,u,0%,9%,x,u,-29%
COc1ccc(C(C(=O)NC2CCCC2)N(Cc2ccco2)C(=O)c2snc(C(N)=O)c2N)cc1OC (stereo not drawn),u,x,1%,8%,5%,x,-10%[46.1 µM],u
COc1cccc(CNS(=O)(=O)c2cccc(S(=O)(=O)N3CCOCC3)c2)c1,-1%,1%,1%,-1%,4%,-6.0%,-12%,6%
COc1ccc(S(=O)(=O)N(C)C)cc1NC(=O)CCCSc1ccccc1,u,x,-1%,8%,-10%,x,-1%[46.1 µM],-17%
O=C(OCc1ccc(Cl)cc1)c1ccccc1C(=O)c1ccccc1,12%,-7%,-2%,-2%,-21%,-2.9%,u,14%
O=C(Nc1nc2n(n1)C(c1ccc(Cl)cc1)CC(c1ccc(Cl)cc1)N2)c1ccco1 (stereo not drawn),u,13%,3%,-6%,u,-4.5%,u,u
COC(=O)c1ccc(/C=N/NC(=O)CC(=O)NC(C)C)cc1,-1%,0%,-13%,-4%,17%,2.7%,-1%,x
COc1ccccc1-c1ccc(=O)n(CC(=O)Nc2ccc(C(=O)N3CCCC3)cc2)n1,4%,0%,-2%,9%,-10%,0.0%,11%,-5%
CCN(c1ccc(OC)cc1)S(=O)(=O)c1c(C(=O)N2CCCCCC2)c(C)n(C)c1C,-16%[46.1 µM],u,x,x,x,-1.6%,x,-22%

# Single records, as listed above.
# CCN(c1ccc(OC)cc1)S(=O)(=O)c1c(C(=O)N2CCCCCC2)c(C)n(C)c1C in the list: LASV entry inh = -16%[46.1 µM]; Cruzain inh noDet = u; SARS PLpro yeast = x; RE007 growth inh = x; NS1 function inh = x; Cruzain inh Det = -1.6%; MARV entry inh = x; StopGo reporter = -22%
# O=C(N[C@@H](Cc1ccccc1)C(=O)O)c1c(F)c(F)c(F)c(F)c1F in the list: LASV entry inh = x; Cruzain inh noDet = x; SARS PLpro yeast = 1%; RE007 growth inh = -7%; NS1 function inh = 6%; Cruzain inh Det = x; MARV entry inh = x; StopGo reporter = 0%

# Screening results deposited in PubChem by National Center for Advancing Translational Sciences (NCATS).
